# Vaccinia Venus = qHTS for Stage-Specific Inhibitors of Vaccinia Orthopoxvirus: Venus Reporter Primary qHTS. Potency, µM (series often up to 36.5 µM), inactives show at the top dose activity change, negative = inhibition, actives largely listed as inhibitors. Vaccinia virus Venus reporter expression, fluorescence. AID 720580, 2013. actives 0.46% (n = 330,000); active means well fitted inhibition curve with a large enough effect; inconclusive means small, poorly fitted or top-dose-only effect; inactive means no such curve, though single readings can be large or run the other way; tested in A549 cells; note: nearly all actives have a fitted effect of over 30% in size; inactives centre near -10
# VACV mCherry inh = qHTS for Stage-Specific Inhibitors of Vaccinia Orthopoxvirus: mCherry Reporter Primary qHTS; Vaccinia virus mCherry reporter infection, fluorescence; about a quarter of the inactives have no number; AID 720579, 2013; Potency, µM (doses to about 36.5 µM), without a hit: top-dose activity change, negative = inhibition, actives largely listed as inhibitors; actives 0.63% (n = 310,000); active = well fitted inhibition curve with a large enough effect; inconclusive = small, poorly fitted or top-dose-only effect; inactive = no such curve, though single readings can be large or run the other way; tested in A549 cells; note: nearly all actives have a fitted effect of over 35% in size; inactives centre near -10
# Starred values were filed as active, the others as inactive; i = inactive; ? = inconclusive; . = no result given; & = joins results of further samples. % is set by controls: 0 for no effect and ±100 for the full control effect; potency is the fitted concentration of half-maximal effect. Compounds were not picked by outcome (roughly 0.87% active in at least one column).
SMILES,Vaccinia Venus,VACV mCherry inh
C=C[C@@H](c1ccccc1)[C@](C)(O)C(=O)O,5.1%,-11.5%
Cc1sc2nc(NCCO)[nH]c(=O)c2c1C,-23.7%,i
CN(C)CC1CSCCC1(O)c1ccc(Cl)cc1 (stereo not drawn),-6.6%,i
CC(C)Oc1ccc(C(=O)Nc2nnc3n2CCS3)cc1,-9.7%,-10.7%
CCOC(=O)C1(C)CCCN(C(=O)COc2ccccc2)C1 (stereo not drawn),2.0%,25.7%
O=C(N/N=C/c1ccncc1)c1cc([N+](=O)[O-])cc([N+](=O)[O-])c1O,-1.5%,.
Cn1c(C2=C(O)CN(c3ccc4c(c3)OCCO4)C2=N)nc2ccccc21,-15.1%,-6.8%
C/C(O)=C(/C#N)c1nc2ccccc2[nH]1,?,.
CCOc1cc(CNc2ccc(N3CCN(C(C)=O)CC3)cc2)cc(Br)c1OC,-6.6%,-10.9%
COc1ccc(NC(=O)Nc2ccc3c(c2)C(=O)N([C@H](C)CO)C[C@H](C)[C@@H](CN(C)S(=O)(=O)c2cccs2)O3)cc1,-21.1%,?
Cn1c(=O)c2c(n3c4ccccc4nc13)NC(=O)CC2c1ccccc1F (stereo not drawn),-1.2%,2.8%
CNC(=O)CN1C(=O)COc2ccc(S(=O)(=O)N3CCC(C)CC3)cc21,-3.2%,-0.4%
O=C(NN1C(=O)c2ccccc2NC12CCCCC2)c1ccccc1,0.4%,-5.9%
CC1CCN(C(=O)CSc2nc3ccccc3s2)CC1,-1.4%,i
Cc1ccccc1OCC(=O)Nc1ccccc1OCc1cc(=O)n2ccccc2n1,-13.9%,-9.8%

# Not a retest: entries from further up.
SMILES,Vaccinia Venus,VACV mCherry inh
C=C[C@@H](c1ccccc1)[C@](C)(O)C(=O)O,5.1%,-11.5%
Cc1sc2nc(NCCO)[nH]c(=O)c2c1C,-23.7%,i

# Additional records
SMILES,Vaccinia Venus,VACV mCherry inh
O=C(CSC1=NCCS1)Nc1ccc2ccccc2c1,-15.1%,-25.9%
CCOc1ccccc1N,-12.6%,-1.8%
Cc1ccc(NC(=O)CCCNC(=O)c2ccc(Cl)cc2)nc1,0.7%,-14.2%
COc1cccc(NC(=O)CSc2nnc(NC(=O)C3CC3)s2)c1,-6.4%,i
c1ccc(-n2ncc(-c3nn[nH]n3)n2)cc1,-9.3%,-9.7%
Cc1ccc(-n2c(Cc3cccn3C)nnc2SCC(=O)N2CCN(c3ccccc3)CC2)cc1,-13.3%,-5.4%
CCS(=O)(=O)c1ccc(O)c(NC(=O)NC2CCCCC2)c1,-16.2%,-9.0%
C=CCNc1n[nH]c(=S)s1,-0.4%,-16.0%
O=C(O)CC(NC(=O)C1CCCCC1)c1cc([N+](=O)[O-])ccc1Cl (stereo not drawn),-8.1%,-4.5%
CC(=O)Cn1ncc(N2CCOCC2)c(Br)c1=O,-8.1%,i
COc1ccc(/C=N/NC(=O)CC2N=C(Cc3ccccc3)NNC2=O)cc1OC (stereo not drawn),-12.8%,-0.3%
COc1ccc(C)c2sc(NC(=O)c3ccc(S(=O)(=O)N4CCCC4)cc3)nc12,1.7%,-6.1%
CN(C)c1cc2c(cc1NS(=O)(=O)c1ccccc1)n(C)c(=O)n2C,7.2%&-8.1%,-15.6%&0.9%
CCOc1ccc2c(c1)sc1nc(=O)n(-c3ccc(Cl)c(Cl)c3)c(=O)n12,2.4%,2.4%
COc1ccc(CN(C(=O)Nc2ccc(C)c(F)c2)C2CCN(C(C)=O)CC2)cc1,4.7%,-5.0%
Cc1cc(C)c2c(CC(=O)Nc3ccc(S(=O)(=O)Nc4ncccn4)cc3)coc2c1,-8.1%,-10.0%
CC(C)NC(=O)c1cc2nc(-c3ccco3)cc(C(F)(F)F)n2n1,-15.2%,-18.3%
O=C(Nc1ccccc1SC(=O)c1ccccc1)c1ccccc1,-10.6%,-5.8%
Cc1ccc2onc(CNC(=O)Nc3cc(F)ccc3F)c2c1,-9.1%,-14.2%
Cc1c(-c2ccccc2)c(P(=O)(N2CCOCC2)N2CCOCC2)c2ccccn12,-18.2%,-15.1%
CSCCC(NC(=O)/C(=C/c1ccc(F)cc1)NC(C)=O)C(=O)O (stereo not drawn),1.2%,-2.9%
CNC[C@@H]1Oc2c(NS(C)(=O)=O)cccc2C(=O)N([C@@H](C)CO)C[C@H]1C,2.5%,i
CO/N=C/NC(=O)c1c(OC)ccnc1Oc1cccc(C(F)(F)F)c1,-5.6%,i
COc1ccc(CNC(=O)Cn2ccc3cc(S(=O)(=O)N4CCCCCC4)ccc32)cc1OC,-14.0%,-16.1%
Cn1c(CNS(=O)(=O)c2ccc(F)cc2)n[nH]c1=S,-4.6%,-5.6%
O=C(Nc1ncc(Cc2ccccc2)s1)C1COc2ccccc2O1 (stereo not drawn),-26.0%,?
COc1cc(NC(=O)CSc2nncn2C)c(C)cc1[N+](=O)[O-],-3.1%,i
CCOC(=O)C1=C(Nc2ccc(OC)cc2)C(N)=NC1=N,-27.2%,?
CSc1ccc(C(=O)C2CCCN(C(=O)CN3CCOC3=O)C2)cc1 (stereo not drawn),-10.6%,i
Cc1ccc(NC(=O)CN2C(=O)N/C(=C\c3cccn3-c3cccc(C(=O)O)c3)C2=O)cc1,-6.1%,-5.6%

# Looked up above:
# CSCCC(NC(=O)/C(=C/c1ccc(F)cc1)NC(C)=O)C(=O)O (stereo not drawn) in Vaccinia Venus = 1.2%
# Cc1ccc(NC(=O)CN2C(=O)N/C(=C\c3cccn3-c3cccc(C(=O)O)c3)C2=O)cc1 in VACV mCherry inh = -5.6%

# Next entries:
SMILES,Vaccinia Venus,VACV mCherry inh
O=C(/C=C/c1ccc([N+](=O)[O-])cc1)OCC(=O)N1c2ccccc2Sc2ccccc21,-18.1%,-21.6%
COc1ccc(/C=C2\Sc3ccc(C(=O)N4CCCC4)cc3N(C)C2=O)cc1OC,-28.5%,-9.3%
COc1ccc(OCC(=O)Nc2ccc3c(c2)nc(CN2CCCC2)n3C)cc1,-11.5%,i
O=C(NC(=S)NCc1cccnc1)c1cc2ccccc2o1,-9.8%,i
CC(=O)N1CCN(Cc2nc3cc(NC(=O)c4ccc(F)cc4)ccc3n2C)CC1,-9.7%,-8.7%
COc1ccc(C(CNC(=O)c2cccc(S(=O)(=O)Nc3cccc(C)c3)c2)N2CCOCC2)cc1 (stereo not drawn),-7.8%,-20.0%
Clc1ccc(-c2nc(/C=N/N3CCOCC3)c3ccccn23)cc1,-24.8%,-29.8%
Cc1ccc(/C=N/NC(=O)c2cc3c(ccc4ccccc43)o2)cc1[N+](=O)[O-],-15.3%,.
COc1ccc(C(=O)Nc2cc(C(C)=O)c(C)oc2=O)cc1,-9.8%,i
COc1ccccc1CNC(=O)c1ccc2c(c1)N(Cc1cccc(Cl)c1)C(=O)c1ccccc1S2(=O)=O,-17.7%,-15.6%
COc1ccc(C(=O)N2CCC(C(=O)Nc3ccccc3C)CC2)cc1OC,-15.0%,-9.2%
CC(NC(=O)C1CCN(C(=O)c2ccc(-n3ccc4ccccc43)s2)CC1)c1ccccc1 (stereo not drawn),-11.4%,-11.5%
Clc1ccc(Cn2cnc3ccccc32)cc1,5.7%,5.4%
Cc1ccc(/C=C/c2ccc(=O)n(Cc3ccccc3Cl)n2)cc1,-12.2%,.
Oc1ccc(C2Oc3cc(O)cc(O)c3CC2O)cc1 (stereo not drawn),1.1%,-6.7%

# 17 entries from above, tab-delimited.
SMILES	Vaccinia Venus	VACV mCherry inh
CSc1ccc(C(=O)C2CCCN(C(=O)CN3CCOC3=O)C2)cc1 (stereo not drawn)	-10.6%	i
Cc1ccc(NC(=O)CN2C(=O)N/C(=C\c3cccn3-c3cccc(C(=O)O)c3)C2=O)cc1	-6.1%	-5.6%
O=C(/C=C/c1ccc([N+](=O)[O-])cc1)OCC(=O)N1c2ccccc2Sc2ccccc21	-18.1%	-21.6%
COc1ccc(/C=C2\Sc3ccc(C(=O)N4CCCC4)cc3N(C)C2=O)cc1OC	-28.5%	-9.3%
COc1ccc(OCC(=O)Nc2ccc3c(c2)nc(CN2CCCC2)n3C)cc1	-11.5%	i
O=C(NC(=S)NCc1cccnc1)c1cc2ccccc2o1	-9.8%	i
CC(=O)N1CCN(Cc2nc3cc(NC(=O)c4ccc(F)cc4)ccc3n2C)CC1	-9.7%	-8.7%
COc1ccc(C(CNC(=O)c2cccc(S(=O)(=O)Nc3cccc(C)c3)c2)N2CCOCC2)cc1 (stereo not drawn)	-7.8%	-20.0%
Clc1ccc(-c2nc(/C=N/N3CCOCC3)c3ccccn23)cc1	-24.8%	-29.8%
Cc1ccc(/C=N/NC(=O)c2cc3c(ccc4ccccc43)o2)cc1[N+](=O)[O-]	-15.3%	.
COc1ccc(C(=O)Nc2cc(C(C)=O)c(C)oc2=O)cc1	-9.8%	i
COc1ccccc1CNC(=O)c1ccc2c(c1)N(Cc1cccc(Cl)c1)C(=O)c1ccccc1S2(=O)=O	-17.7%	-15.6%
COc1ccc(C(=O)N2CCC(C(=O)Nc3ccccc3C)CC2)cc1OC	-15.0%	-9.2%
CC(NC(=O)C1CCN(C(=O)c2ccc(-n3ccc4ccccc43)s2)CC1)c1ccccc1 (stereo not drawn)	-11.4%	-11.5%
Clc1ccc(Cn2cnc3ccccc32)cc1	5.7%	5.4%
Cc1ccc(/C=C/c2ccc(=O)n(Cc3ccccc3Cl)n2)cc1	-12.2%	.
Oc1ccc(C2Oc3cc(O)cc(O)c3CC2O)cc1 (stereo not drawn)	1.1%	-6.7%

# The results go on.
SMILES,Vaccinia Venus,VACV mCherry inh
Cc1c(C#N)c(NC(=O)COC(=O)c2cc(Cl)c3c(c2)OCCCO3)n(Cc2ccco2)c1C,-6.9%,-15.0%
Cc1cc(C)c(C(=O)N2CCC3(CC2)OCCO3)c(C)c1,-7.6%,-7.8%
O=c1/c(=C\c2cccnc2)sc2nc3ccccc3n12,-3.0%,-9.1%
Cc1ccc(NC(=O)C2CCCN(c3nnc(-n4c(C)ccc4C)s3)C2)c(C)c1 (stereo not drawn),-23.2%,-11.3%
Cc1cn(-c2ccccc2)c(C)c1/C=N\Nc1nc(N2CCOCC2)nc(N2CCOCC2)n1,-12.1%,-11.0%
O=C(NCc1cccnc1)C1c2ccccc2C(=O)N1C1CCCCCC1 (stereo not drawn),0.4%,-8.5%
Cc1ccc2[nH]c(=O)c(CN(Cc3cccs3)Cc3nnnn3Cc3ccco3)cc2c1,-17.9%,-1.5%
CC1CCCCC12NC(=O)N(CC(=O)OCC(=O)Nc1ccc(F)cc1[N+](=O)[O-])C2=O (stereo not drawn),0.7%,-10.0%
O=S(=O)([O-])CCC[n+]1c(SCCCS(=O)(=O)O)sc2ccc(Cl)cc21,-3.6%,-5.9%
Cc1cc(Br)ccc1SCC(=O)N1CCN(S(=O)(=O)c2ccccc2)CC1,-22.1%,-27.6%
Cc1ccc(C(=O)NNC(=O)c2ccc(NS(=O)(=O)c3cccs3)cc2)s1,-5.1%,-12.9%
Cc1nn(Cc2ccccc2)c(=O)c2nn(-c3ccc(Cl)cc3)c(C)c12,-17.6%,-9.0%
O=[N+]([O-])c1ccc(C2CCCC/C2=N/OCc2ccccc2F)c([N+](=O)[O-])c1 (stereo not drawn),-13.0%,.
COCCCN1C(=O)c2ccc(C(=O)Nc3ccc(OC)cc3OC)cc2C1=O,-0.3%,.
N/C(=N\c1nc2ccccc2o1)NC(=O)C(Cc1ccccc1)N1C(=O)c2ccccc2C1=O (stereo not drawn),-19.3%,.
O=C(C1CCCN(Cc2cccs2)C1)N1CCCCCC1 (stereo not drawn),-3.2%,.
NC(=O)c1cn(C2CCCCC2)c2ccccc2c1=O,-12.2%,i
O=C1Nc2ccc([N+](=O)[O-])cc2OC1CCN1CCCC1 (stereo not drawn),-4.8%,0.0%
Cc1nnc2c3ccccc3nc(N3CCN(c4cccc(Cl)c4)CC3)n12,-17.0%,i
C[C@]12C=CC(=O)C=C1CC[C@@H]1[C@@H]2C(=O)C[C@@]2(C)[C@H]1CC[C@]2(O)C(=O)COC(=O)CCC(=O)O,-11.6%,i
c1nnc(NCNc2nncs2)s1,7.0%,i
O=C(O)CN(c1ccccc1[N+](=O)[O-])S(=O)(=O)c1ccccc1,2.2%,7.0%
CC1C(=O)N(Cc2cn(CCC3OCCCO3)nn2)CCS(=O)(=O)N1Cc1ccc(-c2ccc(F)cc2)cc1 (stereo not drawn),?,-5.5%
CSC1=C(C#N)C(c2ccccc2Cl)C2=C(N1)c1ccccc1C2=O (stereo not drawn),-3.5%,-17.6%
O=C(C[C@H]1C[C@H]2c3cc(NS(=O)(=O)c4ccc(F)cc4)ccc3O[C@H]2[C@H](CO)O1)NCc1ccncc1,-9.5%,-21.8%
CN1c2ccccc2C2(C)CCCC3=Cc4cccc([N+](=O)[O-])c4OC312 (stereo not drawn),-16.6%,i
Cc1ccccc1NC(=O)CN1C(=O)C2C3CC(C(Br)C3Br)C2C1=O (stereo not drawn),-15.1%,-23.7%
COC(=O)c1c(NC(=O)C2c3ccccc3Oc3ccccc32)sc(C)c1C,-6.0%,.

# Compound activity as filed in PubChem BioAssay.
